# Screening data (PubChem BioAssay)
# VACV mCherry inh: inhibitors of vaccinia virus infection (mCherry reporter signal) | AID 720579 | Vaccinia virus mCherry reporter infection, fluorescence; about a quarter of the inactives have no number | Potency, µM (series often up to 36.5 µM), without a hit: at the highest dose activity change, negative = inhibition, usual class: inhibitors | 310,000 tested, 0.63% active; active = well fitted inhibition curve with a large enough effect; inconclusive = small, poorly fitted or top-dose-only effect; inactive = no such curve, though single readings can be large or run the other way; tested in A549 cells; further: nearly all actives have a fitted effect of over 35% in size; inactives centre near -10
# Vaccinia Venus: vaccinia inhibition (Venus reporter) | AID 720580 | Vaccinia virus Venus reporter expression, fluorescence | Potency, µM (series often up to 36.5 µM), inactives show at the top dose activity change, negative = inhibition, hits mostly inhibitors | 330,000 tested, 0.46% active; active means well fitted inhibition curve with a large enough effect; inconclusive means small, poorly fitted or top-dose-only effect; inactive means no such curve, though single readings can be large or run the other way; tested in A549 cells; further: nearly all actives have a fitted effect of over 30% in size; inactives centre near -10
# Starred values were filed as active, the others as inactive; i = inactive; ? = inconclusive; . = no result given; & = joins results of further samples; [ ] = remark or other dose. On the % scale 0 is the no-effect control and ±100 the full control effect; potency means the concentration at half of the fitted maximal effect.
SMILES,VACV mCherry inh,Vaccinia Venus
COc1cccc(NC(=O)CN(C)CC(=O)Nc2ccc(C)cc2Cl)c1,-9.7%,-12.6%
CCN(CCO)Cc1csc2ccc(Br)cc12,i,-6.5%
O=C(NNC(=O)C1CCCO1)c1ccc([N+](=O)[O-])cc1 (centres undefined),17.5%,-15.3%
CCN1CCCC1CNCC(O)COc1ccc(C(C)(C)C)cc1C (centres undefined),-4.1%,0.2%
O=Cc1ccc(-c2cccc([N+](=O)[O-])c2)o1,-0.2%,-5.0%
COc1ccc(S(=O)(=O)N2CCC(C(=O)Nc3nnc(CCN4CCCCC4)s3)CC2)cc1,-18.7%,-14.6%
COCCCn1c(SCC(=O)NC2CCCC2)nnc1-c1ccccc1,-3.6%,1.7%
Cc1c(C(=O)N/N=C/C(C)C)[nH]c2ccc([N+](=O)[O-])cc12,-19.9%,-21.1%
C[C@H](CCC(=O)O)[C@H]1CC[C@H]2[C@@H]3[C@H](O)C[C@@H]4C[C@H](O)CC[C@]4(C)[C@H]3C[C@H](O)[C@]12C,-17.1%&8.6%,-10.1%&-6.9%&0.7%
CCC(C)NC(=O)c1cnn(-c2cccc(F)c2)c1-n1cccc1 (centres undefined),4.0%,-7.3%
COCCNS(=O)(=O)c1cccc2cccnc12,i,-3.9%
Cc1cc2nc(C3CCCCC3)c(Cc3ccccc3C(F)(F)F)n2c(C)c1Br,-2.5%,1.8%
NS(=O)(=O)c1ccc(CCNC(=O)COC(=O)CCc2c[nH]c3ccccc23)cc1,-25.4%,-18.1%
Cc1ccccc1-c1nc2c(s1)CCc1onc(-c3ccc(Cl)cc3)c1-2,-16.5%,-5.8%
CN(C(=O)CSc1nc2ccc(NC(=O)COc3ccc(Cl)cc3)cc2s1)c1ccccc1,?,?
Cc1c(NC(=O)COC(=O)c2ccc(Cl)nc2)c(=O)n(-c2ccccc2)n1C,-10.4%,-3.2%
O=C(O)C1CCc2nc(NCc3ccccc3)nc(NCc3ccccc3)c2C1 (centres undefined),-11.5%,4.9%
Cn1c(C(C#N)/C(=N\S(=O)(=O)c2cccs2)c2ccccc2)nc2ccccc21 (centres undefined),i,-4.8%
Clc1ccc(-c2c[n+](Cc3cccc(Cl)c3)c3n2CCC3)cc1,-14.4%,-15.9%
CCC(c1nnnn1C1CCCCC1)N1CCN(C2CCCC2)CC1 (centres undefined),.,-5.6%
Cc1cccc(C)c1NC(=O)CNC(=O)Cn1nc(C)c(C)c(C#N)c1=O,-15.5%,-3.0%
COc1cc(C(=O)NCCc2nc3ccccc3n2C)cc(OC)c1OC,-14.0%,-12.9%
c1ccc(Nc2cccc(Nc3ccccc3)n2)cc1,?,-22.4%
CC(C)(O)C(=O)N/N=C\c1ccc(OC/C=C/c2ccccc2)cc1,-18.8%,-6.7%

# Compound profiles (already shown).
# Clc1ccc(-c2c[n+](Cc3cccc(Cl)c3)c3n2CCC3)cc1 across the screens: VACV mCherry inh = -14.4%; Vaccinia Venus = -15.9%
# CC(C)(O)C(=O)N/N=C\c1ccc(OC/C=C/c2ccccc2)cc1 across the screens: VACV mCherry inh = -18.8%; Vaccinia Venus = -6.7%
# Cc1ccccc1-c1nc2c(s1)CCc1onc(-c3ccc(Cl)cc3)c1-2 across the screens: VACV mCherry inh = -16.5%; Vaccinia Venus = -5.8%

# Remaining list, next part
SMILES,VACV mCherry inh,Vaccinia Venus
CC(=O)c1ccc(N2CCN(C(=O)c3ccc4c(c3)OCO4)CC2)cc1,-2.2%,-17.3%
O=C(CCc1c[nH]c2ccccc12)N1CCN(S(=O)(=O)c2ccc(F)cc2)CC1,-23.1%,-8.1%
O=C(NCc1ccc2c(c1)OCO2)c1cc2c(s1)CSC2,6.9%,-2.4%
Cc1ccc(S(=O)(=O)N2CCC[C@H]2C(=O)NCc2ccccc2Cl)cc1,-25.3%,-8.5%
CCc1nn2c(-c3ccccc3OC)ccnc2c1-c1ccccc1,-13.1%,-14.4%
COc1ccc(C(=O)NCCCN2CCOCC2)cc1S(=O)(=O)N1CCCc2ccccc21,-8.4%,-10.3%
COc1cc2c(cc1OC)CN(Cc1cc(=O)oc3c(C)c(C)ccc13)CC2,i,-10.3%
Cn1c(=O)n(-c2ccccc2)c(=O)c2c3c(sc21)COC(C)(C)C3,.,-23.3%
Cc1ccc2nc(NCc3ccc(F)cc3)c3nncn3c2c1,-9.1%,-0.2%
CCN1CCN(C(=O)C2CCN(S(=O)(=O)c3ccc(Br)cc3)CC2)CC1,i,-10.5%
CCN(CC)S(=O)(=O)c1ccc(C)c(NC(=S)NC2CCCCC2)c1,-9.7%,-16.7%
CC(C)NS(=O)(=O)c1ccc(OCC(=O)Nc2ccc3c(c2)OCO3)c(Cl)c1,.,?
COc1ccc(CCNC(=S)NC(=O)c2ccccc2)cc1C,i,-15.2%
COC(=O)CN1C(=S)N(C)C(=O)/C1=C/c1cccs1,-0.3%,-4.4%
Cc1cnc(=O)[nH]c1SCC(=O)Nc1cc(C(F)(F)F)ccc1Cl,-26.7%,-21.0%
Nc1nc(COc2ccc3ccccc3c2)cs1,-21.7%,-24.9%
Cc1cccc(-n2cnc(C(=O)NNC(=S)Nc3ccccc3)c2)n1,-22.5%,-18.8%
CCOC(=O)c1sc(Nc2nc(OC)cc(OC)n2)nc1C,-22.1%,-14.2%
COc1ccc(CC(N)c2csc(Nc3nccc(C(F)(F)F)n3)n2)cc1 (centres undefined),23.1%,-9.6%
CCCCCCNCC1OCc2ccccc2CO1,i,-7.2%
COC(=O)C1(Cc2ccc3c(c2)CCC3)Cc2ccc3c(c2C1=O)CCC3 (centres undefined),i,3.3%
c1ccc(CNc2nc(Oc3ccncc3)c3sccc3n2)cc1,-8.4%,-7.9%
CCCCC(=NCCc1c(C)[nH]c2ccc(OC)cc12)C1=C(O)CC(c2ccccc2)CC1=O (centres undefined),?,-24.4%
COc1ccc(C(CNC(=O)CSc2ccccc2)N2CCOCC2)cc1 (centres undefined),i,-3.0%
COc1ccc(C(=O)NC(=S)N2CCN(c3ccc([N+](=O)[O-])cc3)CC2)cc1,-12.1%,?
CCOC1=C2CN(S(=O)(=O)c3ccc(C)cc3)[C@@H](c3cccs3)C[C@H]2[C@H]2C(=O)N(c3ccccc3)C(=O)[C@H]2C1,-4.3%,-16.1%
CCOC(=O)C1CCN(C(=O)CN(c2ccc3c(c2)OCCO3)S(=O)(=O)c2ccccc2)CC1,i,-7.4%
COc1ccc(OCc2cc(C(=O)N3CCC(OC)CC3)no2)c2ccccc12,i,-5.1%
COc1ccc(OC)c(NC(=O)CN2CCN(C(=O)c3ccco3)CC2)c1,i,-9.1%
COc1ccc(CCNC(=O)CCc2cn(C)c3ccccc23)c(OC)c1,-2.2%,-9.5%
COc1ccc(S(=O)(=O)NNC(=O)c2ccc(-n3c(C)ccc3C)cc2)cc1,-5.7%,-7.7%
Cc1ccc(Nc2cc(C)nc(-n3nc(C)cc3C)n2)cc1,-10.0%[7.34 µM],-7.0%[7.34 µM]
COCCn1c(SCC(=O)NC(C)c2ccccc2)nc2ccccc21 (centres undefined),-12.8%,-4.4%
NS(=O)(=O)c1ccc(Nc2nc(-c3cccnc3)cs2)cc1,-28.2%,-21.8%
COC(=O)[C@H](C)N(Cc1ccc(Cl)c(Cl)c1)S(=O)(=O)CCN1CCN(c2ccccc2)CC1,14.1µM*,?
O=C(N/N=C/c1cccnc1)c1ccc([N+](=O)[O-])cc1Cl,-11.0%,-1.7%
O=c1[nH]c2ccccc2nc1-c1ccccc1,-8.0%,-5.9%
COc1ccc(OC)c(NC(=O)c2c(NC(=O)CNCc3ccco3)sc3c2CCC3)c1,.,-5.5%
Cc1ccc(NS(=O)(=O)N(C)C)cc1,.,?
Cc1cc(C)n2nc(CNS(=O)(=O)c3cccc([N+](=O)[O-])c3)nc2n1,i,-8.5%
Cn1c(=O)c2c(-c3ccccc3F)c3c(nc2n(C)c1=O)-c1ccccc1C3O (centres undefined),.,-0.8%
Clc1ccc(OCCCNCc2ccccc2)c(Br)c1,-26.5%,-17.4%
COc1ccc(C2CC(=O)C3=C(C2)Nc2ccccc2NC3c2coc3ccccc3c2=O)cc1OC (centres undefined),-1.6%,-26.1%
Cc1cccc(C(=O)Nc2sc3c(c2C(=O)NC(C)C)CCCC3)c1,-28.4%,-17.8%
O=C(Cc1n[nH]c(=O)[nH]c1=O)N/N=C/c1c(O)ccc2ccccc12,-11.2%,1.7%
COc1ccc(C(C)=O)cc1COC(=O)CNC(=O)C1CCCCC1,i,-1.3%
O=C(NCCc1ccccn1)c1cc(-c2ccc(Cl)cc2)nc2ccccc12,i,-20.4%
Cc1nn2cc(-c3ncc(C(F)(F)F)cc3Cl)cnc2c1Br,4.7%,-3.3%
COC(=O)c1ccccc1NC(=O)c1c(Br)cnn1C,.,-17.7%
CCN(C(=O)COC(=O)c1c(C)nn(-c2ccccc2)c1C)C1CCS(=O)(=O)C1 (centres undefined),i,-15.3%
COCCCNS(=O)(=O)c1cc(-c2onc(C)c2C)ccc1OC,-8.7%,-6.1%
O=C1N=c2ccccc2=C1c1sc(=S)n(CC2CCCO2)c1O (centres undefined),.,-5.2%
CCOc1ccc(S(=O)(=O)N2CN3CCN(C3)C2)cc1,-4.6%,-16.5%
COc1cc(OC)c(NC(=O)CS(=O)(=O)Cc2nc(-c3ccc(C)cc3)oc2C)cc1Cl,?,-16.8%
CCOc1ccccc1NC(=O)C1CCN(S(=O)(=O)c2ccc3[nH]c(=O)oc3c2)CC1,-6.9%,-13.4%
CCc1c(C)c2cc3c(c(C)c2oc1=O)OCN(CCc1ccc(OC)c(OC)c1)C3,-17.6%,-8.1%
CCNC(=O)NC(=O)C(C)OC(=O)c1oc2ccccc2c1CSC1CCCCC1 (centres undefined),-16.5%,-8.0%
COc1cccc(NC(=O)CSc2nnc(Cc3ccc(OC)c(OC)c3)o2)c1,-0.8%,-5.5%
Cc1ccc(CNC(=O)C2CCN(c3nnc(N4CCCC4=O)s3)CC2)cc1,-11.3%,-21.2%
CC(O)CNc1nc2c(c(=O)n(C)c(=O)n2C)n1C/C=C/c1ccccc1 (centres undefined),?,?

# Individual results from the entries so far:
# Vaccinia Venus, COc1cc(OC)c(NC(=O)CS(=O)(=O)Cc2nc(-c3ccc(C)cc3)oc2C)cc1Cl = -16.8%
# VACV mCherry inh, CCOc1ccc(S(=O)(=O)N2CN3CCN(C3)C2)cc1 = -4.6%

# Returning to the listing, starting 2 compounds before the break.
SMILES,VACV mCherry inh,Vaccinia Venus
Cc1ccc(CNC(=O)C2CCN(c3nnc(N4CCCC4=O)s3)CC2)cc1,-11.3%,-21.2%
CC(O)CNc1nc2c(c(=O)n(C)c(=O)n2C)n1C/C=C/c1ccccc1 (centres undefined),?,?
O=C(Nc1ccc(F)cc1)Nc1nnc(-c2ccco2)s1,i,-0.9%
Cc1cccc(NC(=O)CSc2nc(N)c(NC(=O)c3cccs3)c(=O)[nH]2)c1,i,-13.5%
CC(=O)[C@H]1CC[C@@H](c2ccccc2)N(S(=O)(=O)c2ccc(C)cc2)C1,-12.6%,-4.0%
Brc1ccc(-c2nn[nH]n2)cc1,-15.0%,-3.0%
COc1ccc(-c2nc(SCCOc3cc(C)ccc3C(C)C)n3[nH]c(=O)cc3n2)cc1,-7.2%,-7.7%
O=C(O)c1cc2c(o1)CCC/C2=N\O,-0.3%,-7.4%
CCCCSCCCNC(=O)c1cn(C)c2ccc(S(=O)(=O)N3CCCCCC3)cc2c1=O,-7.6%,-2.0%
NS(=O)(=O)c1ccc(NC(=O)/C=C/c2ccccc2[N+](=O)[O-])cc1,2.5%,-5.9%
COc1ccc(C(=O)Nc2ccc(SC(F)F)cc2)cc1,-17.6%,-12.5%
COc1cc(OC)cc(-n2nnnc2SCC(=O)NCc2cccs2)c1,-14.9%,-15.2%
C[C@H](NC(=O)c1nc[nH]c1C(=O)NC[C@@H](C)O)c1ccccc1,i,-5.5%
Cc1cc(C(=O)OCC(=O)NC2CCS(=O)(=O)C2)c(C)n1-c1ccccc1 (centres undefined),-19.1%,-17.1%
CC1CCc2nc(NC(=O)C3COc4ccccc4O3)sc2C1 (centres undefined),-21.6%,-12.0%
COC(=O)C1=C(CSc2nncn2C)NC(=O)NC1c1cc(C)ccc1C (centres undefined),.,-8.3%
O=C(c1cc2ccccc2o1)N1CCC(N2CCC(C(=O)N3CCCC3)CC2)CC1,-12.7%,-2.3%
CCC(C)OC(=O)c1[nH]c2c(c1C)C(=O)CC(c1ccc(N(C)C)cc1)C2 (centres undefined),?,-22.3%
NC(=O)c1ccc(-n2nnnc2SCc2ccccc2)cc1,i,-16.8%
Cn1cc([C@]2(O)C(=O)Nc3c(F)cccc32)c2ccccc21,-25.7%,-12.3%
Cc1cc(NC(=O)c2ccc3c(c2)N(Cc2cccc(Cl)c2)C(=O)c2ccccc2S3=O)ccc1Br (centres undefined),-9.2%,-3.5%
CCc1ccc(CN(C)C(=O)c2cc(S(=O)(=O)N3CCN(CC)CC3)ccc2Cl)cc1,-12.1%,-10.0%
O=S(=O)(NCCc1cn2ccccc2n1)c1cccs1,-11.7%,14.0%
O=C(CSc1nnnn1-c1ccc(Cl)cc1)Nc1cccnc1Cl,-6.3%,-18.0%
COc1ccc(-c2cc(C(F)(F)F)c(C#N)c(SCC(=O)Nc3ccc(C)cc3)n2)cc1,-17.9%,-12.1%
Cc1ccc(CNC(=O)CSc2c3c(nc4ccc(Cl)cc24)CCCC3)o1,-26.1%,-13.9%
CN(CC(=O)Nc1ccccc1Cl)C(=O)CN1C(=O)C2CCCCC2C1=O (centres undefined),-12.7%,-8.8%
COc1cccc(N2CCN(C(=O)c3ccc(N4C(=O)NC5CC4(C)Oc4ccccc45)cc3)CC2)c1 (centres undefined),-6.2%,-7.5%
CC(C)c1ccc(N(CC(=O)NC2CCCCC2)C(=O)CCC(=O)Nc2ccccn2)cc1,4.2%,3.9%
